High-throughput results (PubChem BioAssay)
RecA intein inh: Mtb RecA intein splicing inhibitors, primary screen, biochemical, fluorescence, HTS; 290,000 compounds, 0.75% hits; inhibition, %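 (about 9 µM by stock and volumes)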; Protein RecA (Mycobacterium tuberculosis (strain ATCC 25618 / H37Rv)), P9WHJ3; cell-free RecA intein splicing; AID 2221, 2009; in the data active = inhibition above about 30%; inconclusive = no clear call, values can overlap the other calls;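 also: 0% = vehicle wells and 100% = reference inhibitor control wells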
Target sequence (P9WHJ3 whole entry, looked up): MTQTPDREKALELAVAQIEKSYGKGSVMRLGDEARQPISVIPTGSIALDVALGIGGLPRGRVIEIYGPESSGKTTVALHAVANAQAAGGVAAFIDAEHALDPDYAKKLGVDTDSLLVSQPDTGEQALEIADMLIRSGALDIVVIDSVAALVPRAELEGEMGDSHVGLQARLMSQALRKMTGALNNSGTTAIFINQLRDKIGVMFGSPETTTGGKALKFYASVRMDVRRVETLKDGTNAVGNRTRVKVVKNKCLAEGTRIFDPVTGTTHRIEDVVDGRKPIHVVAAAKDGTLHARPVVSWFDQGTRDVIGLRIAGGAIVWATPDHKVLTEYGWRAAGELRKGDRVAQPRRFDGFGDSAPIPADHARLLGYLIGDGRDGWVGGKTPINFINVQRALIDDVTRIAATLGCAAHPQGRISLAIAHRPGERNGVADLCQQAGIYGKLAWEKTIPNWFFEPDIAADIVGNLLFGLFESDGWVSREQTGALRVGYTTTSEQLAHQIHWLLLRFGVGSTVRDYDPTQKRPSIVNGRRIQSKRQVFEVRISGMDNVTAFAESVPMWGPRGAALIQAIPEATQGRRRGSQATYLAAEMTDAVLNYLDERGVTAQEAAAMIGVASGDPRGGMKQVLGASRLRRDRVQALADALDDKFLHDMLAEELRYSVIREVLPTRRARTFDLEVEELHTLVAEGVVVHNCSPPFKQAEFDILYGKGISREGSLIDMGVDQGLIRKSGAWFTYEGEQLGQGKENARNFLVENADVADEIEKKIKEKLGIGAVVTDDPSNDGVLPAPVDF
Arbovirus anti: antivirals against arbovirus infection, primary screen, cell-based, full library, 10K replicate subset; arbovirus infection cell-based antiviral screen; inhibition, % at 10 µM; 200,000 compounds, 0.37% hits; AID 1251, 2008;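 active = inhibition from about 30%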;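 also: bluetongue infection of BSR cells; cell survival read as ATP light after 72 h; 0% = infected wells without compound and 100% = uninfected wells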
Mtb growth: M. tuberculosis H37Rv growth inhibitors, H37Rv strain (AID 1626) | M. tuberculosis H37Rv growth inhibition; higher % means a stronger effect | inhibition, % at 10 µM; hits with a dose series show IC50 in µM | 220,000 compounds, 0.95% hits;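 active = confirmed in a dose series; inconclusive = inhibition above 80% but not taken into the dose series; inactive = below 80% or under 30% at every dose of the series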;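 also: bacteria incubated seven days before Alamar blue readout; 0% = bacteria only wells and 100% = bacteria with antibiotic wells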
Mtb betalactam: beta-lactam sensitization of Mtb H37Rv, H37Rv. M. tuberculosis H37Rv growth with meropenem, percent inhibition; hits of this screen are not shown here. inhibition, % at 25 µM. 330,000 compounds, 0.27% hits. AID 434955, 2010;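 active = about 74% or more and at least 40 points above the plate without the antibiotic, then above 30% in a dose series; inconclusive = first-round hits that could not be retested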;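 also: growth measured after seven days incubation then overnight dye step; 0% = bacteria only wells and 100% = bacteria with antibiotic; twin plates without the antibiotic show which effects depend on it; some results filed as inactive read as strong as hits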
YopH PTP inh: YopH tyrosine phosphatase inhibitors, primary screen, biochemical, fluorescence Ex485/Em525. inhibition, %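 (about 10 µM by stock and volumes)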. 140,000 compounds, 0.16% hits. YopH tyrosine phosphatase [Yersinia enterocolitica]. AID 898, 2007;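 active = inhibition of 50% or more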;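 also: controls were vehicle for no effect and minimum signal wells for full effect; inactives centre near -20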
Arbovirus anti repeat: recorded beside Arbovirus anti, whose call it bears; inhibition, %; measured here: 10K subset replicate screen; many hits read low in the repeat;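 first of two repeat runs on a subset; 0% = infected and 100% = uninfected wells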
Active calls of the source: *; i = inactive; ? = inconclusive; / = no result given. A portion of the library; count on the stated rates, not on these rows.

SMILES	RecA intein inh	Arbovirus anti	Mtb growth	Mtb betalactam	YopH PTP inh	others
Cc1sc(NC(=O)c2ccco2)c(C(c2ccncc2)N2CCOCC2)c1C (stereo not drawn)	-2.3	-19	2%	-6	-57
COC(=O)c1sc(NC(=O)c2ccoc2C)nc1C	0.0	-10	2%	/	41
C=CCOC(=O)C1=C(C)Nc2ncnn2C1c1cccs1 (stereo not drawn)	1.3	4	7%	-4	-15
COc1ccc(CNC(=O)c2csc(Cc3ccc(OC)cc3)n2)cc1	5.8	0	8%	1	2
COc1ccc(S(=O)(=O)Nc2ccc(S(=O)(=O)NCC3CCCO3)cc2)cc1 (stereo not drawn)	0.4	/	/	7	/
COc1ccc(OCC(O)Cn2c(Br)nc3c2c(=O)[nH]c(=O)n3C)cc1 (stereo not drawn)	-6.1	-13	-5%	-13	-183
CC(=O)Nc1ccc(NC(=O)c2ccc(NS(=O)(=O)c3cc(C(C)(C)C)ccc3C)cc2)cc1	1.1	-4	4%	4	/
COc1ccc(NC(=O)C(NC(=O)CNC(C)=O)c2ccc(C)cc2)cc1 (stereo not drawn)	1.9	0	-7%	1	-5
CCOC(=O)c1c(C)n(Cc2ccccc2)c2ccc(O)cc12	-6.0	-5	-8%	-2	/
COc1ccc(NC(=O)C2CC(=O)N(c3cccc(C)c3C)C2)cc1 (stereo not drawn)	-0.2	1	2%	0	16
CC(/C=N/Nc1ccc2nncn2n1)=C\c1ccccc1	2.6	/	-1%	-1	/
COc1cc2c(cc1OC)CN(CC(=O)Nc1ccc(C#N)cc1)CC2	-7.7	0	-10%	-3	-18

3 compounds out of the list, arranged by length of the SMILES, lowest first:
SMILES	RecA intein inh	Arbovirus anti	Mtb growth	Mtb betalactam	YopH PTP inh	others
COC(=O)c1sc(NC(=O)c2ccoc2C)nc1C	0.0	-10	2%	/	41
CC(/C=N/Nc1ccc2nncn2n1)=C\c1ccccc1	2.6	/	-1%	-1	/
COc1ccc(OCC(O)Cn2c(Br)nc3c2c(=O)[nH]c(=O)n3C)cc1 (stereo not drawn)	-6.1	-13	-5%	-13	-183

(cont.)
SMILES	RecA intein inh	Arbovirus anti	Mtb growth	Mtb betalactam	YopH PTP inh	others
CC(C)c1nn2c(=O)cc(CSc3ccccc3NC(=O)c3ccccc3F)nc2s1	-1.5	/	/	-6	/
CCCCn1c(=O)c(C(=O)OCC)c(O)c2ccccc21	-5.0	1	-3%	16	-60
COc1ccc(NC(=O)CCn2ccnc2)c(OC)c1	1.8	/	/	2	/
O=C(NNCC(O)COc1ccccc1)c1ccccc1 (stereo not drawn)	-0.3	-5	7%	-5	-20
COC(=O)c1cn(C(=O)OC)c2ccccc12	-0.2	-5	?	-2	-27
Cc1nn(C(=O)c2cccnc2)c(C)c1C	0.1	-5	-4%	-3	-8
O=C(NC1CCCCC1)NC1CC2CCCC(C1)N2C1CCCC1 (stereo not drawn)	0.6	6	-7%	-10	16
CC[C@@H](C)[C@H](NC(=O)CCc1c(C)c2cc3c4c(oc3c(C)c2oc1=O)CCCC4)C(=O)O	-5.4	/	/	9	/
CN(C)CCOc1ccccc1C(C)(C)C	-1.9	3	-3%	-2	-16
Cc1nnc(NC(=O)Nc2cccc(Cl)c2)s1	4.6	23	0%	-2	-36
CCc1nnc(NC(=O)CN2CCN(CC)CC2)s1	1.7	/	/	-3	/
Cc1ccc2nsnc2c1NC(=O)c1ccccc1[N+](=O)[O-]	1.0	-4	-4%	-9	-28
O=C1/C(=C/c2ccc([N+](=O)[O-])cc2)C=C(c2ccccc2)N1c1ccccc1	0.9	-6	-2%	11	-7
COc1cc(NC(=O)c2cccs2)c(OC)cc1NC(=O)Cc1ccccc1	0.8	/	/	83	/
Cc1c(O)ccc2c(CC(=O)N[C@@H](Cc3ccc(O)cc3)C(=O)O)cc(=O)oc12	-100	/	/	0	/
CC1(C)c2[nH]c3ccccc3c2C[C@H]2C(=O)N(CCCO)CC(=O)N21	1.1	/	/	-2	/
Cc1ccccc1Nc1nc(Cl)c(C=O)s1	7.4	-4	7%	12	/
Cc1ccc(C(=O)COC(=O)CCCC(=O)NC2CCCCC2)cc1[N+](=O)[O-]	0.2	-2	-9%	6	-26
COc1ccc(CNC(=O)CSCc2cnn(-c3ccccc3)c2-n2cccc2)cc1	7.8	5	0%	1	-13
COc1ccc(CNC(=O)CC(C)CC2=NS(=O)(=O)c3ccccc3N2)cc1 (stereo not drawn)	3.5	/	/	0	/
CC(C)(C)C(=O)O/N=C1/C(=O)N(c2ccccc2)c2ccccc21	-0.3	11	1%	3	-1
COc1ccc(-n2c(Cc3cc(=O)[nH]c(=O)[nH]3)nnc2SCc2ccccc2)cc1	1.1	6	7%	-6	-17	Arbovirus anti repeat=1
CC(C)(C)c1ccc(/C=N/N2C(=O)CSC2=S)cc1	-2.9	/	/	0	/
Cc1ccc(Cl)cc1NC(=O)CN1C(=O)COc2ccc(S(=O)(=O)N3CCOCC3)cc21	-0.6	/	/	4	/
Cc1ccc(Cn2c(=N)c(C(=O)NCC3CCCO3)cc3c(=O)n4ccccc4nc32)cc1 (stereo not drawn)	i	/	/	8	/
Cc1ccc(C)n1NC(=O)c1ccccc1Cl	4.4	9	-3%	7	7
Cc1nc([N+](=O)[O-])cn1-c1ccc(N)cc1	0.4	-4	-4%	4	-22
O=C(Cn1cnc2cc([N+](=O)[O-])ccc2c1=O)NCc1ccccc1	-1.7	-2	-2%	0	/
CCC(Sc1nc(=O)cc(N)n1-c1ccccc1)C(=O)Nc1cc(C)on1 (stereo not drawn)	-1.2	5	-4%	57	-13
O=C(c1cccc(F)c1)N1CCN(C(=O)c2cc3ncc(Br)cn3n2)CC1	/	4	-2%	-13	-5
Cc1cccc2c1=NC(=O)/C(=C/c1c(O)[nH]c(=O)[nH]c1=O)C=2	-4.9	-12	-4%	1	5
Clc1ccc(-c2nnc(C3CC3)o2)cc1	-2.6	/	-2%	-9	/
O=C(CC(Nc1ccc(F)cc1)C(=O)OCC(=O)c1cccs1)c1ccccc1 (stereo not drawn)	9.1	-1	67µM*	97	-24
COc1cc(/C=C/C(=O)OCC(=O)NCC2CCCO2)ccc1OCC#N (stereo not drawn)	-0.3	2	8%	-2	-20
Clc1ccc(NNc2ccnc3cc(Cl)ccc23)cc1	-0.1	-6	-5%	95	-18
CCCNC(=O)c1nn2cc(Br)cnc2c1Cl	-2.3	-4	-10%	-1	/
CCNC(=O)c1ccc(OCC(=O)Nc2ccc(F)cc2)c(OC)c1	-5.6	0	0%	2	/
CNC(=O)c1csc(-c2ccccc2)n1	0.8	2	-8%	-6	-28
CCOC(=O)c1nnn(-c2ccc([N+](=O)[O-])cc2)c1C	-0.8	20	-1%	6	/
COc1ccc(S(=O)(=O)Nc2cc3c4c(c2)CC(=O)N4CCC3)cc1	11	/	/	-8	/
CN1C(C(=O)NCc2ccco2)CC2Cn3c(nc4cc(Cl)c(Cl)cc43)C21 (stereo not drawn)	0.1	/	-13%	3	/
Cc1cc(N)n(-c2ccc(C(=O)O)cc2)n1	-3.4	-2	0%	-2	/
CCOc1ccc(NC(=O)c2ccc(NC(=O)c3cn4c5c(c(N6CCN(C)CC6)c(F)cc5c3=O)OCC4C)cc2)cc1 (stereo not drawn)	0.4	-25	2.8µM*	/	-32
COc1ccccc1N1CCN(CCCNC(=O)Cn2ncc3c([nH]c4ccccc43)c2=O)CC1	-1.1	/	/	9	/
CCOC(=O)Cn1cc(C(=O)c2ccccc2F)c2ccccc21	3.4	-7	5%	39	-18
COCC(=O)NC1CCN(CC(=O)Nc2ccc(OC)cc2[N+](=O)[O-])CC1	3.2	3	3%	36	-9
COc1ccc(C2CC(O)(C(C)(C)O)NO2)cc1 (stereo not drawn)	-2.1	0	-3%	-5	-9
COc1ccc(C2(O)CCN(CCCCOc3ccccc3)CC2)cc1	1.1	4	50%	14	-1
COc1ccc(NC(=O)CSCC(=O)OCc2cccc(OC)c2OC)cc1	3.4	/	/	50	/
O=C(NCCCN1CCOCC1)c1ccc(NS(=O)(=O)c2ccccc2)cc1	0.8	/	/	2	/
COc1cccc(F)c1C(=O)NC(=O)Nc1ccc2nc(C)oc2c1	-0.8	/	-8%	-4	/
O=C1CCCN1c1cccc(Br)c1	3.5	-3	-5%	12	-10
CC(C)(C)OC(=O)[C@H](CCCCN)NC(=O)c1nc[nH]c1C(=O)NCCCCCN	0.5	/	/	-3	/
O=C(NCCc1ccccc1)C(=Cc1ccc(C(=O)O)cc1)C(=O)NCCc1ccccc1	8.7	1	-5%	-1	/
O=C1CC(C2CCCO2)C(=O)N1c1ccccc1 (stereo not drawn)	0.7	6	-1%	1	-31
COc1ccc(CNC(=O)C2CCN(c3nc(-c4ccccc4)nc4c3CCC4)CC2)cc1	2.6	/	/	71	/
Cc1c(C(=O)Nc2ccccn2)sc2nc3n(c(=O)c12)CCC3	0.2	/	/	12	/
O=c1cc2c(=O)oc3cc(O)c(O)oc3c2c(O)c1O	-9.5	/	-7%	/	/
CCCCCOC(=O)C1=C(C)NC(=O)NC1c1ccccc1 (stereo not drawn)	-0.3	/	/	-3	/
CCOC(=O)CS(=O)(=O)CC(=O)Nc1ccc([N+](=O)[O-])cc1OC	0.2	-2	-5%	-5	/

Gathered by group, the compounds so far containing a thiophene ring, fused or not (5)
SMILES	RecA intein inh	Arbovirus anti	Mtb growth	Mtb betalactam	YopH PTP inh	others
Cc1sc(NC(=O)c2ccco2)c(C(c2ccncc2)N2CCOCC2)c1C (stereo not drawn)	-2.3	-19	2%	-6	-57
C=CCOC(=O)C1=C(C)Nc2ncnn2C1c1cccs1 (stereo not drawn)	1.3	4	7%	-4	-15
COc1cc(NC(=O)c2cccs2)c(OC)cc1NC(=O)Cc1ccccc1	0.8	/	/	83	/
O=C(CC(Nc1ccc(F)cc1)C(=O)OCC(=O)c1cccs1)c1ccccc1 (stereo not drawn)	9.1	-1	67µM*	97	-24
Cc1c(C(=O)Nc2ccccn2)sc2nc3n(c(=O)c12)CCC3	0.2	/	/	12	/

Additional results:
SMILES	RecA intein inh	Arbovirus anti	Mtb growth	Mtb betalactam	YopH PTP inh	others
COC(=O)c1ccccc1NC(=O)N1CCN(C/C=C/c2ccccc2)CC1	-1.2	7	4%	?	5
C#CCN(CC=C)C(=O)CCc1nnc(COc2ccccc2)o1	1.7	3	-4%	1	/
OCCN1CCN(c2ncnc3ccc(Br)cc23)CC1	-2.1	12	-3%	-10	/	Arbovirus anti repeat=1
CC1(C)Cc2ccccc2C(C(=O)c2ccccc2)=N1	-0.4	/	/	-3	/
CCn1c(COc2ccccc2C)nnc1SCC(=O)CC(=O)Nc1ccccc1	12	-9	5%	2	-16
CCc1nn(CC(=O)N2CCCCCC2)c(=O)c2cc3ccccc3n12	0.0	/	/	6	/
Cc1ccc(Cl)cc1N1CCN(S(=O)(=O)c2ccc3c(c2)NC(=O)C(C)C(=O)N3)CC1 (stereo not drawn)	-0.4	/	/	5	/
CCCc1nnc(NC(=O)CCC(=O)N2CCN(S(=O)(=O)c3ccc(OC)cc3)CC2)s1	-2.1	/	/	2	/
Cc1csc2c(N3CCN(C(=O)Nc4ccc(OC(F)(F)F)cc4)CC3)ncnc12	1.7	/	2%	88	/
O=C(c1cc2c(F)cccc2s1)N1CCCC1	-2.2	8	7.9µM*	97	/
FC(F)(F)c1cccc(Nc2nc(N3CCOCC3)nc(N3CCOCC3)n2)c1	5.7	/	/	6	/
Cc1cnn(-c2ccc3nnc(-c4ccc(Cl)cc4)n3n2)c1	1.7	-7	6%	37	-21
O=C(Cc1cccs1)NCc1cccs1	-2.0	2	3%	/	-1
CCCCc1cc(=O)oc2cc(OCC(=O)N[C@@H](Cc3ccccc3)C(=O)O)ccc12	0.5	/	/	5	/
COCCNC(=O)CN1C(=O)COc2ccc(Cl)cc21	3.0	3	/	3	-18	Arbovirus anti repeat=1
O=C(CSc1nnc(-c2ccncc2)n1-c1ccc(F)cc1)NNC(=O)c1cccc(O)c1	0.3	4	-11%	-2	-5
Cc1ccnc(NC(=O)CSc2ccccn2)c1	1.3	/	-7%	2	/
O=C(COc1ccccc1[N+](=O)[O-])NC1CC1	-1.3	3	2%	0	/
NC(=O)Cc1ccc(C(=O)c2ccccc2F)s1	-1.3	0	-2%	-4	/
